# High-throughput results: PubChem, National Center for Advancing Translational Sciences (NCATS)
# TRPML1 agonist: activates the human TRPML1 channel. Q9GZU1. TRPML1-expressing cells, Ca2+ dye fluorescence, FDSS; host cell line not named in the record; reference of the full effect not given here. activation, % (no concentration beside the values). actives 0.12% (n = 410,000); in the data active = activation above about 50%; inconclusive = about 30% to 50%; inactive = below about 30%; also: 0% is about no effect; the text of the record puts the active cut at 80%
# Target sequence (Q9GZU1 whole entry, looked up): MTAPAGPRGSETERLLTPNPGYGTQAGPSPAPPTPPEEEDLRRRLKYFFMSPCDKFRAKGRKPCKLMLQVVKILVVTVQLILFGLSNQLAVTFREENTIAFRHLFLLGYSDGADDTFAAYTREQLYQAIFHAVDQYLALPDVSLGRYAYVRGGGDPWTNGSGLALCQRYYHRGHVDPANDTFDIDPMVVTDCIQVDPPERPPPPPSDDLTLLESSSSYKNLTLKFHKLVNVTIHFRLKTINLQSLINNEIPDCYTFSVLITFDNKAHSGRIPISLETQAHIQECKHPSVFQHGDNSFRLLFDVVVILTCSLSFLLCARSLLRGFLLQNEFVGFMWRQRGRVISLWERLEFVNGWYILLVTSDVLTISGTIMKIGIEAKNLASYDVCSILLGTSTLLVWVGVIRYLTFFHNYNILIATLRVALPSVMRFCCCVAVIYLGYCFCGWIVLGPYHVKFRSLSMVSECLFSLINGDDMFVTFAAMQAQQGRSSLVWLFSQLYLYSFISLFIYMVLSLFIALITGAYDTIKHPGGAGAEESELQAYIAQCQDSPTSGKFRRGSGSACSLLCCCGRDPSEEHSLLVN
#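 Tet-induced TRPML1-DL cells, 1,500 per well, cultured overnight, were loaded with a no-wash Ca2+ dye for 45–90 min. Calcium fluorescence was recorded on the FDSS for 110 s after compound addition, before the EC80 agonist (4 uM 54-4) was added.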
# TRPML1 inh: human mucolipin-1 channel inhibition; actives 0.02% (n = 390,000); activity change, negative = inhibition, % (test concentration not listed); TRPML1-inducible cells, Ca2+ dye fluorescence, FDSS; hits give low values; inhibition of EC80 agonist-evoked calcium signal; Q9GZU1; in the data active means activity change below about -50%; inconclusive means about -30% to -50%; inactive means above about -30%;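 also: stimulus is agonist 54-4 at its EC80 concentration; % is scaled to controls: 0 for no effect and ±100 for the full control effect; compound concentration not given in the record; the text of the record puts the active cut at -80%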
#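 Tet-induced TRPML1-DL cells loaded with Ca8 no-wash calcium dye were read kinetically on FDSS. Compound addition was followed by EC80 agonist 54-4 (4 uM final); inhibition was read over 110 s.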
# * = called active by the depositor. This is a subset; rates above refer to the full screens.
SMILES,TRPML1 agonist,TRPML1 inh
Cc1ccc(-c2c3c(=O)n(C)c(=O)n(C)c3c3c(C)nc4ccccc4n23)cc1,-1.0,-3
N#C/C(=C/c1ccc(Cl)cc1)c1nc(-c2ccc(Br)cc2)cs1,0.6,0
CCOC(=O)c1cc(S(=O)(=O)N2CCN(c3cc(Cl)ccc3C)CC2)[nH]n1,1.1,-22
Cc1cc(=O)n(Cc2cccc(Br)c2)c2c1c(C)nn2-c1ccccc1,0.7,-4
CCOc1ccc(S(=O)(=O)NCc2ccc3c(c2)CCN3C(=O)c2ccc(C)cc2)cc1,1.5,21
CCN(c1cccc(C)c1)S(=O)(=O)c1c(C)nc2sc(C)cn2c1=O,-0.1,0
COc1ccc(-c2cc(C(F)(F)F)nc(SCC(=O)N3CCC(C)CC3)n2)cc1,-0.3,0
COc1ccc(NC(=O)C(NC(=O)C2CCC(C)CC2)C(C)C)cc1 (stereo not given),-0.8,-1
CC1CCN(S(=O)(=O)c2ccc3c(c2)c(=O)c(C(=O)NCCc2ccccc2)cn3C)CC1,-0.6,2
COc1ccccc1-c1cc(C(F)(F)F)nc(S(=O)(=O)CCCC(=O)Nc2ccccc2F)n1,0.4,96

# Ordered by the number under TRPML1 inh (ascending): some entries from above.
SMILES | TRPML1 inh
CCOC(=O)c1cc(S(=O)(=O)N2CCN(c3cc(Cl)ccc3C)CC2)[nH]n1 | -22
Cc1cc(=O)n(Cc2cccc(Br)c2)c2c1c(C)nn2-c1ccccc1 | -4
CC1CCN(S(=O)(=O)c2ccc3c(c2)c(=O)c(C(=O)NCCc2ccccc2)cn3C)CC1 | 2

# More results:
SMILES,TRPML1 agonist,TRPML1 inh
Fc1ccc(-n2ncc3c(Nc4ccc(Oc5ccc(Cl)cc5)cc4)ncnc32)cc1,-0.8,4
CC(C)Cn1c(/C=C/c2ccc(F)cc2)nc2ccccc21,2.4,8
Cn1c(=O)c2sccc2n2c(CCCC(=O)Nc3ccc(Oc4ccccc4)cc3)nnc12,1.1,23
COc1ccc(N2CC(NC(=O)CCCc3ccccc3)CC2=O)cc1 (stereo not given),0.0,29
COc1ccc(CNC(=O)Cn2ncc3c(=O)oc4ccccc4c32)c(OC)c1,-0.2,73
Cc1ccccc1C(=O)N(Cc1ccc(N(C)C)cc1)Cc1ccco1,0.9,22
COc1cccc(CNC(=O)NCc2noc3ccc(C)cc23)c1,1.4,-13
Cc1cc(C)c(Cn2c(=O)n(-c3ccccc3Cl)c(=O)c3c(C)c(C(=O)N(C)C)sc32)c(C)c1,0.6,9
O=C(Nc1ccc2nc(SCC(=O)N3CCOCC3)sc2c1)c1cccc(F)c1,3.9,-4
CCCOc1ccc(C(=O)Nc2ccc3nn(-c4ccc(OC)c(Cl)c4)nc3c2)cc1,2.1,-20
O=C(NCCc1ccc(Cl)cc1)C1CCN(S(=O)(=O)c2ccc3[nH]ccc3c2)CC1,0.4,-9
C=Cc1ccc(CN2C(=O)N(c3ccc(CC)cc3)S(=O)(=O)c3ccccc32)cc1,1.3,24
CCS(=O)(=O)c1ncc(Cl)c(C(=O)Nc2ccccc2)n1,1.8,-12
COc1ccc(CNC(=O)c2ccc(C)cc2)cc1,0.8,-10
Cc1ccc(-c2nc3ncccc3o2)cc1NC(=O)COc1ccc(C(C)C)cc1,1.9,21
Cc1ccc(-c2noc(-c3ccccc3OCC(=O)Nc3ccccc3[N+](=O)[O-])n2)cc1,-0.4,-3
COc1cccc(NC(=O)CN2C(=O)CSc3ccc(S(=O)(=O)N4CCCC4)cc32)c1,3.1,-14
Cc1ccc(Cl)cc1NC(=O)c1cc(-c2ccc3c(c2)OCCO3)on1,0.4,5
COc1ccc2c(c1)cc(CNc1ccc(OC)c(OC)c1)c(=O)n2CC(=O)Nc1ccccc1C,5.1,23
COc1cc(OC)c(OC)cc1CNCCCSc1nnnn1C,-0.5,55
Cc1ccc(Cl)cc1N(C)C(=O)c1cnc(N2CCOCC2)c2ccccc12,-0.5,3
COc1ccc(-c2cc(C(F)(F)F)n3nc(C(=O)Nc4cc(C)ccc4C)cc3n2)cc1,-0.3,-14
COc1ccc(NC(=O)CCc2nc3cccnc3n2-c2ccccc2)cc1Cl,0.7,4
Cc1cccc(CSc2cn(CC(=O)N3CCCCCC3)c3ccccc23)c1,0.6,12
CCOc1cc(C2c3c(oc4ccc(F)cc4c3=O)C(=O)N2Cc2ccc(C)cc2)ccc1O (stereo not given),-0.3,1
CCc1cccc(NC(=O)c2cc3c(=O)oc4ccc(C)cc4c3s2)c1,-0.3,-5
COc1cc(-c2oc3ccc(C)cc3c(=O)c2O)cc(OC)c1OC,4.5,12
Cc1nn2c3c(cnc2c1-c1ccc(Cl)cc1)C(=O)CC(c1ccc(C(C)C)cc1)C3 (stereo not given),0.1,-9
CCOC(=O)c1cc(OC(=O)c2ccccc2C)n(-c2ccccc2)n1,1.8,5
COc1ccc(CCNC(=O)CCn2c(=O)c3ccccc3n(CC(=O)Nc3cccc(C)c3)c2=O)cc1OC,-0.6,3
CCOc1ccccc1NC(=O)CN(CCc1ccccc1)S(=O)(=O)c1ccc(C)cc1,3.8,61
COc1cccc(-c2nnc3n(CCc4ccccc4)c(=O)c4ccccc4n23)c1O,1.2,-9
CCc1cccc(C)c1NC(=O)C(C)Sc1nc2c(c(=O)[nH]1)CCCC2 (stereo not given),3.2,-27
Cc1ccc(Cn2c(CNC(=O)Cc3cccc([N+](=O)[O-])c3)nc3cccnc32)cc1,-0.4,-16
Cc1cccc(N2CCN(CCCNC(=O)c3nnc(Cc4c(F)cccc4Cl)o3)CC2C)c1 (stereo not given),0.1,19
COc1cc(NC(=O)CC(c2ccc(C)cc2)N2Cc3ccccc3C2=O)cc(OC)c1 (stereo not given),1.2,-3
CCOc1ccc(S(=O)(=O)N2CCN(c3cc(Cl)ccc3Cl)CC2)c2ccccc12,2.0,-2
CCc1nnc(NC(=O)c2nc(SC)ncc2Cl)s1,0.1,-13
Cc1ccc(OCC(=O)Nc2nnc(S(=O)(=O)N3c4ccccc4CC3C)s2)cc1 (stereo not given),1.1,15
CCc1cccc2sc(N3CCN(C(=O)c4cc5ccccc5cc4OC)CC3)nc12,3.9,24
CC1(C)CC(=O)c2cc(-c3nc(-c4ccc(Cl)cc4)cs3)c(=O)[nH]c2C1,0.2,-1
CCCCNC(=O)CCCCCn1c(=O)[nH]c2ccccc2c1=O,1.5,11
Cc1ccc(C)c(NC(=O)CSc2cn(CC(=O)N3CCCCC3)c3ccccc23)c1,4.1,-16
COc1ccc(NC(=O)CN(c2ccc(C)cc2)S(=O)(=O)c2cccs2)cc1OC,0.7,15
CCc1nnc2c(N3CCN(c4cccc(C(F)(F)F)c4)CC3)nc3ccccc3n12,1.4,-11
CCOc1ccccc1CNC(=O)CCCn1c(=O)c2cccn2c2ccc(F)cc21,3.3,4
O=c1c(-c2cc(-c3ccccc3)nc3c2COc2ccccc2-3)coc2ccc(Cl)cc12,1.7,-4
Cc1ccc(OCc2nc3ccccc3n2CCOc2ccc(Cl)cc2)cc1,6.7,75
COc1cccc(CNC(=O)c2ccc3c(Cl)c4c(nc3c2)CCCC4)c1,0.6,-3
CC(C)(C)c1ccc(C(=O)N(Cc2ccc(F)cc2)Cc2ccco2)cc1,1.8,-7

# Two entries from above, bar-delimited.
mol | TRPML1 agonist | TRPML1 inh
CC(C)(C)c1ccc(C(=O)N(Cc2ccc(F)cc2)Cc2ccco2)cc1 | 1.8 | -7
CCc1nnc2c(N3CCN(c4cccc(C(F)(F)F)c4)CC3)nc3ccccc3n12 | 1.4 | -11

# Continued:
SMILES,TRPML1 agonist,TRPML1 inh
Cc1ccc2onc(CNC(=O)N3CCN(c4cccc(C)c4C)CC3)c2c1,2.6,5
CC(C)Oc1ccc(CNC(=O)CCCN2C(=O)c3cccnc3Oc3ccc(Cl)cc32)cc1,2.9,-16
COC(=O)c1sc(N2C(=O)c3oc4ccc(C)cc4c(=O)c3C2c2ccc(O)c(OC)c2)nc1C (stereo not given),0.1,-3
CN(CC(=O)Nc1ccc(Cl)cc1F)S(=O)(=O)c1ccc2c(c1)n(C)c(=O)c(=O)n2C,1.9,7
CCCc1nn2c(=O)cc(COc3ccc(/C=C(\C#N)C(=O)Nc4ccc(F)cc4)cc3)nc2s1,-0.6,46
COc1ccc(-c2cc(C(F)(F)F)nc(SCC(=O)NCC(C)C)n2)cc1OC,-0.6,11
O=C(COc1ccc(Cl)cc1)Nc1ccccc1OCc1cc(=O)n2ccccc2n1,-0.3,-23
Cc1ccc2c(c1)N(C(=O)Nc1ccc(Br)cc1F)CCO2,-0.5,14
CCC(C)n1c(=N)c(S(=O)(=O)c2ccccc2)cc2c(=O)n3ccccc3nc21 (stereo not given),3.6,-11
CCOC(=O)c1c(C)[nH]c(CCC(=O)Nc2cc(C)ccc2OC)c1C,0.7,-5
O=C(Nc1ccccc1OCc1cc(=O)n2ccccc2n1)c1ccccc1F,0.4,-2
CC(C)c1ccc(NC(=O)c2cc(S(=O)(=O)NC3CCCCC3)ccc2F)cc1,1.0,-9
Cc1noc2ncnc(NCc3ccc(Cl)cc3)c12,-0.2,8
COc1ccc(NC(=O)c2cnc(N3CCCC3)nc2)cc1OC,0.9,-15
Cc1ccsc1CN(Cc1ccco1)C(=O)c1ccc(Cl)cc1,4.4,-4
CCOc1ccc(C2C(C(=O)Nc3ccccc3)=C(C)Nc3nc(-c4ccccc4)nn32)cc1OC (stereo not given),1.9,59
COc1ccc(-c2noc(-c3cc(-c4ccc(F)cc4)n[nH]3)n2)cc1,-0.5,6
COc1cc(OC)c(NC(=O)CCc2c(C)nc3c4c(C)cc(C)nc4nn3c2C)cc1Cl,0.4,-3
COc1cc(-c2nc3sccn3c2Nc2cccc(C)c2)ccc1O,1.5,-4
N#Cc1ccc(NC(=O)COCc2cc(-c3ccco3)on2)cc1,0.2,28
CN1C(=O)c2[nH]nc(-c3ccc(F)cc3)c2C1c1ccccn1 (stereo not given),1.3,-19
Cc1ccc2nc(-c3ccc(O)cc3)c(Nc3ccc(Cl)cc3)n2c1,-0.4,-4
CC1CCCN(Cc2c(O)ccc3c(=O)c(Oc4ccccc4Cl)c(C(F)(F)F)oc23)C1 (stereo not given),0.6,5
Cc1ccc(-c2cc(C(=O)Nc3c(C(=O)c4ccccc4)oc4ccccc34)no2)cc1F,-0.1,-15
Cc1ccc(/C=C(\C#N)C(=O)Nc2ccc(Br)cc2)o1,0.4,0
CCc1cccc(NC(=O)C2CCCN2S(=O)(=O)c2ccc3nc(-c4ccccc4)[nH]c3c2)c1 (stereo not given),2.4,-13
Cc1cc(C)cc(OCC(=O)NCC(c2ccc(Cl)cc2)N2CCCCC2)c1 (stereo not given),1.0,15
CCN(CC)CCNC(=O)C(=O)NCC(c1cccnc1)N1CCN(c2ccc(F)cc2)CC1 (stereo not given),0.4,16
CC(=O)N1CCc2cc(CNC(=O)Nc3ccccc3C(F)(F)F)ccc21,-0.9,11
CCOc1ccc(N(CC)S(=O)(=O)N2CCCC(C(=O)NCc3ccc(Cl)cc3)C2)cc1 (stereo not given),0.0,5

# An excerpt from further up, as a working copy:
SMILES,TRPML1 agonist,TRPML1 inh
CC(=O)N1CCc2cc(CNC(=O)Nc3ccccc3C(F)(F)F)ccc21,-0.9,11
CCOc1ccc(N(CC)S(=O)(=O)N2CCCC(C(=O)NCc3ccc(Cl)cc3)C2)cc1 (stereo not given),0.0,5

# New compounds follow:
SMILES,TRPML1 agonist,TRPML1 inh
Cc1ccc(NC(=O)Cn2c(SCc3ccc(F)cc3)nc3cccnc32)cc1F,0.8,-3
O=C(C1CCN(c2nc3ccccc3[nH]2)CC1)N1CCN(c2cccc(Cl)c2)CC1,0.8,20
COc1ccc(NS(=O)(=O)c2ccc3c(c2)CCN3C(=O)CCC(=O)O)cc1Cl,0.2,-9
Cc1cccc(NC(=O)Cn2c(SCC(=O)NCc3ccccc3)nc3ccccc32)c1C,1.0,-20
CCOC(=O)c1ccccc1NC(=O)CN1C(=O)CC(c2ccco2)Sc2ccccc21 (stereo not given),2.7,6
O=C(CC1(O)C(=O)N(CCc2ccccc2)c2ccc(Br)cc21)c1ccccc1O (stereo not given),0.0,-23
O=C(Cc1ccc(Cl)cc1)Nc1nnc2n1CCS2,0.0,-9
Cc1nn(C)c2c1c(C(F)(F)F)cc(=O)n2CC(=O)N1CCN(c2ccccc2F)CC1,0.7,3
COc1ccccc1NC(=O)CSC1=Nc2ccccc2C2=NC(CCC(=O)NCc3cccs3)C(=O)N12 (stereo not given),1.0,36
Cc1ccccc1-c1noc(-c2cc3ccccc3oc2=O)n1,-1.0,-7
Cc1ccccc1NC(=O)CCn1nc(-c2ccccc2)c2ccccc2c1=O,-0.2,14
COc1cccc(-c2nc(SCc3cccc(Br)c3)n3[nH]c(=O)cc3n2)c1,-0.6,-5
COc1cccc(CNC(=O)N2CCc3c(sc4c3CCCC4)C2c2ccc(F)cc2)c1 (stereo not given),0.3,14

# An excerpt from above in order of molecular weight, descending:
SMILES,TRPML1 agonist,TRPML1 inh
COc1ccccc1NC(=O)CSC1=Nc2ccccc2C2=NC(CCC(=O)NCc3cccs3)C(=O)N12 (stereo not given),1.0,36
O=C(CC1(O)C(=O)N(CCc2ccccc2)c2ccc(Br)cc21)c1ccccc1O (stereo not given),0.0,-23
Cc1cccc(NC(=O)Cn2c(SCC(=O)NCc3ccccc3)nc3ccccc32)c1C,1.0,-20
COc1cccc(CNC(=O)N2CCc3c(sc4c3CCCC4)C2c2ccc(F)cc2)c1 (stereo not given),0.3,14
Cc1ccccc1NC(=O)CCn1nc(-c2ccccc2)c2ccccc2c1=O,-0.2,14
Cc1ccccc1-c1noc(-c2cc3ccccc3oc2=O)n1,-1.0,-7
